# High-throughput results as filed in PubChem BioAssay.
# OX1R antag-1: OX1R (HCRTR1) antagonists, primary screen, fluorescence, CHO/OX1R cells, Fluo-8 calcium, orexin A; inhibition, % at 5 µM; Fluo-8 calcium fluorescence; 330,000 compounds, 0.43% hits; Orexin/Hypocretin receptor type 1 (Homo sapiens), O43613; AID 434989, 2010;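 active = inhibition above its plate's threshold, mean inhibition of all tested compounds on the plate plus 3 SD, cut at about 37% in these data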;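 note: 0% = orexin A challenge wells and 100% = SB-334867-A antagonist wells; not every result past the cut was called active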
# Target sequence (O43613 whole entry, looked up): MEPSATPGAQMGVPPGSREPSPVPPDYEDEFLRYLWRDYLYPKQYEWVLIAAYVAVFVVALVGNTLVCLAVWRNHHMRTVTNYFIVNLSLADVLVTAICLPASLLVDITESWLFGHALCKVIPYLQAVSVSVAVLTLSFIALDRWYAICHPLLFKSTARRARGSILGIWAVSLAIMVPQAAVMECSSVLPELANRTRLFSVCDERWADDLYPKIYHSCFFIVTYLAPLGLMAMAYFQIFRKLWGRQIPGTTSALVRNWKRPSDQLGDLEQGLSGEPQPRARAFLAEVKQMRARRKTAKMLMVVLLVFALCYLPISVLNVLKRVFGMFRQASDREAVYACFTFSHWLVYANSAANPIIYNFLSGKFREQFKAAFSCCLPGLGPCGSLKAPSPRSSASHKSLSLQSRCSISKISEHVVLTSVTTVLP
# OX1R antag-2: antagonists of human orexin 1 receptor (OX1R) | Orexin/Hypocretin receptor type 1 (Homo sapiens), O43613 | inhibition, % at 6.6 µM | AID 485270, 2010 | OX1R-expressing cells, FRET antagonist read-out | 330,000 compounds, 1.8% hits; in the data active = inhibition mostly above about 38%, no sharp cut-off; inactive = mostly below about 40%;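 note: 0% = agonist challenge alone and 100% = reference antagonist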
# Numbers without * were called inactive. The list is partial; most or all hits stand in other tables.
1	COc1ccc(N2CCN(C(CNS(=O)(=O)c3cccs3)c3cccnc3)CC2)cc1 (stereo not drawn)
  OX1R antag-1: -15; OX1R antag-2: 14
2	CCOC(=O)c1[nH]c(C)c(CN(Cc2ccco2)C(=O)C(F)(F)F)c1C
  OX1R antag-1: -47; OX1R antag-2: 10
3	O=C1[C@H]2[C@@H](/C=C/c3ccccc3)N3C(=O)CN(CC4CC4)C(=O)[C@@]3(Cc3ccccc3)[C@H]2C(=O)N1c1ccccc1
  OX1R antag-1: -23; OX1R antag-2: 2
4	Cc1nc(N2CCN(c3ccccn3)CC2)c2c(C)c(C(=O)Nc3ccc(F)cc3)sc2n1
  OX1R antag-1: -31; OX1R antag-2: 7
5	CC(=O)Nc1ccc(S(=O)(=O)NCCC(=O)OCc2nc(N)nc(Nc3ccccc3C)n2)cc1
  OX1R antag-1: -26; OX1R antag-2: 18
6	CC1=NN(Cc2ccccc2)C(=O)C1C(c1ccncc1)C(C#N)C#N (stereo not drawn)
  OX1R antag-1: -2; OX1R antag-2: 10
7	CCN1C(=O)/C(=C\N2CCN(C(=O)c3ccco3)CC2)SC1=S
  OX1R antag-1: -16; OX1R antag-2: 7
8	Cc1ccc(S(=O)(=O)N(C)c2ccc(C(=O)Nc3ccccc3C(=O)N3CCOCC3)cc2)cc1
  OX1R antag-1: -14; OX1R antag-2: 11
9	Cc1cc(S(=O)(=O)NC(C)C)ccc1OCC(=O)Nc1ccc2c(c1)OCCO2
  OX1R antag-1: -8; OX1R antag-2: 13
10	CC(C)[C@H](NC(=O)N1CCn2c1nc1ccccc12)C(=O)NCc1ccc2c(c1)OCO2
  OX1R antag-1: -29; OX1R antag-2: 22
11	CC(=O)N1CCN(C(=S)c2ccc(Cl)cc2)CC1
  OX1R antag-1: -22; OX1R antag-2: 16
12	CCc1ccccc1NC(=O)CC(c1ccc(OC)cc1)n1cccc1 (stereo not drawn)
  OX1R antag-1: -5; OX1R antag-2: 29
13	Cc1ccc(CCS(=O)(=O)c2ccc(C(C)(C)C)cc2)cn1
  OX1R antag-1: -8; OX1R antag-2: 10
14	CCC(CC)c1nnc(NC(=O)CCc2ccc(OC)cc2)s1
  OX1R antag-1: -35; OX1R antag-2: 3
15	O=C(CC1NC2CCCCC2NC1=O)Nc1cccc(C(F)(F)F)c1 (stereo not drawn)
  OX1R antag-1: -26; OX1R antag-2: 14
16	O=C1c2ccccc2C(=O)c2cc(NC(=O)C3CC3)ccc21
  OX1R antag-1: 3; OX1R antag-2: 44
17	Cc1c(C#N)c2ccccc2n1CC(=O)NCc1ccccc1
  OX1R antag-1: -19; OX1R antag-2: 9
18	CC(C)Oc1ccc(Cc2cnc(N)nc2N)cc1
  OX1R antag-1: -9; OX1R antag-2: 8
19	CC1CCN(C(=O)CSc2nnc(CN3CCOCC3)n2-c2ccccc2)CC1
  OX1R antag-1: -9; OX1R antag-2: 9
20	c1ccc(CN2CCN(c3ncnc4nc[nH]c34)CC2)cc1
  OX1R antag-1: 10; OX1R antag-2: 16
21	CCC(=O)N1CCc2cc(S(=O)(=O)CCC(=O)NCc3ccco3)ccc21
  OX1R antag-1: -24; OX1R antag-2: 9
22	CCO[C@@H]1OC(C(=O)NCc2nc3ccccc3[nH]2)=C[C@H](C(C)(C)C)[C@H]1CCCO
  OX1R antag-1: -29; OX1R antag-2: 8
23	CCn1c2ccccc2c2cc(NC(=O)c3ccc([N+](=O)[O-])cc3)ccc21
  OX1R antag-1: -13; OX1R antag-2: 21
24	COc1cc(/C=C/C(=O)OCC(=O)N2CCOCC2)ccc1OCC#N
  OX1R antag-1: -8; OX1R antag-2: 35
25	O=C(NNc1ccccn1)C(=O)NNS(=O)(=O)c1ccc(Cl)cc1
  OX1R antag-1: -15; OX1R antag-2: 7

# Numbers 6 through 25, reprinted for reference:
6	CC1=NN(Cc2ccccc2)C(=O)C1C(c1ccncc1)C(C#N)C#N (stereo not drawn)
  OX1R antag-1: -2; OX1R antag-2: 10
7	CCN1C(=O)/C(=C\N2CCN(C(=O)c3ccco3)CC2)SC1=S
  OX1R antag-1: -16; OX1R antag-2: 7
8	Cc1ccc(S(=O)(=O)N(C)c2ccc(C(=O)Nc3ccccc3C(=O)N3CCOCC3)cc2)cc1
  OX1R antag-1: -14; OX1R antag-2: 11
9	Cc1cc(S(=O)(=O)NC(C)C)ccc1OCC(=O)Nc1ccc2c(c1)OCCO2
  OX1R antag-1: -8; OX1R antag-2: 13
10	CC(C)[C@H](NC(=O)N1CCn2c1nc1ccccc12)C(=O)NCc1ccc2c(c1)OCO2
  OX1R antag-1: -29; OX1R antag-2: 22
11	CC(=O)N1CCN(C(=S)c2ccc(Cl)cc2)CC1
  OX1R antag-1: -22; OX1R antag-2: 16
12	CCc1ccccc1NC(=O)CC(c1ccc(OC)cc1)n1cccc1 (stereo not drawn)
  OX1R antag-1: -5; OX1R antag-2: 29
13	Cc1ccc(CCS(=O)(=O)c2ccc(C(C)(C)C)cc2)cn1
  OX1R antag-1: -8; OX1R antag-2: 10
14	CCC(CC)c1nnc(NC(=O)CCc2ccc(OC)cc2)s1
  OX1R antag-1: -35; OX1R antag-2: 3
15	O=C(CC1NC2CCCCC2NC1=O)Nc1cccc(C(F)(F)F)c1 (stereo not drawn)
  OX1R antag-1: -26; OX1R antag-2: 14
16	O=C1c2ccccc2C(=O)c2cc(NC(=O)C3CC3)ccc21
  OX1R antag-1: 3; OX1R antag-2: 44
17	Cc1c(C#N)c2ccccc2n1CC(=O)NCc1ccccc1
  OX1R antag-1: -19; OX1R antag-2: 9
18	CC(C)Oc1ccc(Cc2cnc(N)nc2N)cc1
  OX1R antag-1: -9; OX1R antag-2: 8
19	CC1CCN(C(=O)CSc2nnc(CN3CCOCC3)n2-c2ccccc2)CC1
  OX1R antag-1: -9; OX1R antag-2: 9
20	c1ccc(CN2CCN(c3ncnc4nc[nH]c34)CC2)cc1
  OX1R antag-1: 10; OX1R antag-2: 16
21	CCC(=O)N1CCc2cc(S(=O)(=O)CCC(=O)NCc3ccco3)ccc21
  OX1R antag-1: -24; OX1R antag-2: 9
22	CCO[C@@H]1OC(C(=O)NCc2nc3ccccc3[nH]2)=C[C@H](C(C)(C)C)[C@H]1CCCO
  OX1R antag-1: -29; OX1R antag-2: 8
23	CCn1c2ccccc2c2cc(NC(=O)c3ccc([N+](=O)[O-])cc3)ccc21
  OX1R antag-1: -13; OX1R antag-2: 21
24	COc1cc(/C=C/C(=O)OCC(=O)N2CCOCC2)ccc1OCC#N
  OX1R antag-1: -8; OX1R antag-2: 35
25	O=C(NNc1ccccn1)C(=O)NNS(=O)(=O)c1ccc(Cl)cc1
  OX1R antag-1: -15; OX1R antag-2: 7

# (further entries)
26	CCOc1nc(C)ccc1-c1noc(-c2ccncc2)n1
  OX1R antag-1: -24; OX1R antag-2: 10
27	COc1ccc(OCC(O)Cn2c(Br)nc3c2c(=O)[nH]c(=O)n3C)cc1 (stereo not drawn)
  OX1R antag-1: 0; OX1R antag-2: 5
28	[O-][n+]1cccc(C(O)c2ccccc2)c1 (stereo not drawn)
  OX1R antag-1: -1; OX1R antag-2: -3
29	COc1cc(NC(=O)c2cccs2)c(OC)cc1NC(=O)Cc1ccccc1
  OX1R antag-1: -45; OX1R antag-2: 18
30	O=C(NNCC(O)COc1ccccc1)c1ccccc1 (stereo not drawn)
  OX1R antag-1: -14; OX1R antag-2: 18
31	Cc1cc(C(=O)CN2C(=O)NC(C)(c3ccccc3)C2=O)c(C)n1CC1CCCO1 (stereo not drawn)
  OX1R antag-1: -24; OX1R antag-2: 4
32	COc1ccc(CCNC(=O)C2CCN(S(=O)(=O)c3ccc(F)cc3)CC2)cc1
  OX1R antag-1: -17; OX1R antag-2: 11
33	CCOC(=O)c1c(NC(=O)C2c3ccccc3Oc3ccccc32)sc(C(N)=O)c1C
  OX1R antag-1: -17; OX1R antag-2: 7
34	C=CCSc1nc(Cc2ccc(Cl)cc2)nc2ccccc12
  OX1R antag-1: -18; OX1R antag-2: 7
35	Cc1nc2oc3ccc(F)cc3c(=O)c2cc1C(=O)O
  OX1R antag-1: -14; OX1R antag-2: 14
36	COc1ccc(CCC(=O)NCCc2cn3c(C)csc3n2)cc1
  OX1R antag-1: -13; OX1R antag-2: 2
37	CC(=O)c1ccc(OCCCN2CCCCC2)cc1
  OX1R antag-1: -2; OX1R antag-2: 7
38	O=C(Cc1ccsc1)NCc1ccccc1F
  OX1R antag-1: 0; OX1R antag-2: 16
39	CCCN(CCC)C(=O)c1ccccc1C(=O)N(CCC)CCC
  OX1R antag-1: -29; OX1R antag-2: 26
40	CNS(=O)(=O)c1cccc(C(=O)NCC2(N3CCOCC3)CCCCC2)c1
  OX1R antag-1: -14; OX1R antag-2: 13
41	Fc1ccc(NC(=S)NN2CCOCC2)cc1Cl
  OX1R antag-1: -3; OX1R antag-2: 26
42	Cc1c(S(=O)(=O)Nc2ccc3c(c2)OCCO3)c(=O)n(C)c(=O)n1C
  OX1R antag-1: -8; OX1R antag-2: 6
43	CC(C)C1=C2CCCCC2NC(=O)N1 (stereo not drawn)
  OX1R antag-1: -9; OX1R antag-2: 10
44	CCc1ccc(OCC2c3cc(OC)c(OC)cc3CCN2C(C)=O)cc1 (stereo not drawn)
  OX1R antag-1: -13; OX1R antag-2: 23
45	Cc1ccc(S(=O)(=O)NCCNC(=O)CN2CCOCC2)cc1
  OX1R antag-1: 3; OX1R antag-2: 16
46	Cc1ccc(C)c(S(=O)(=O)Nc2cccc(-n3cnnn3)c2)c1
  OX1R antag-1: -8; OX1R antag-2: 6
47	Cc1c(/C=N/NC(=O)COc2ccccc2[N+](=O)[O-])c2ccccc2n1C
  OX1R antag-1: -15; OX1R antag-2: 8
48	Cc1ccccc1-n1nc2c(c1NC(=O)c1cccs1)CS(=O)(=O)C2
  OX1R antag-1: 6; OX1R antag-2: 7
49	O=C(CNS(=O)(=O)N1CCOCC1)N/N=C/c1cccnc1
  OX1R antag-1: -5; OX1R antag-2: 21
50	Cc1cc(C)c(C)c(OCCCCn2cnc3ccccc3c2=O)c1
  OX1R antag-1: -16; OX1R antag-2: 5

51	CCCCn1cnc2cc(C)c(C)cc21
  OX1R antag-1: -8; OX1R antag-2: 27
52	CCN(C(=O)Cn1c(=O)oc2ccccc21)c1cccc(C)c1
  OX1R antag-1: -11; OX1R antag-2: -14
53	O=S(=O)(Nc1ccc(N2CCOCC2)cc1)c1c(F)cc(F)cc1Br
  OX1R antag-1: -19; OX1R antag-2: 17
54	NC(=O)C1CCCN1S(=O)(=O)c1ccc2ccccc2c1 (stereo not drawn)
  OX1R antag-1: 4; OX1R antag-2: 13
55	O=C(COC(=O)Cc1cccs1)Nc1cc(S(=O)(=O)N2CCOCC2)ccc1Cl
  OX1R antag-1: 13; OX1R antag-2: 11
56	Cc1cccc(-c2onc3ccc(C(=O)/C=C/N(C)C)cc23)c1
  OX1R antag-1: -18; OX1R antag-2: 9
57	CCC(Cc1ccccc1)NS(=O)(=O)c1ccc2c(c1)NC(=O)C(C)S2 (stereo not drawn)
  OX1R antag-1: -29; OX1R antag-2: 36
58	CCOc1cc2[nH]c(=S)n(Cc3ccc(C(=O)NCCCN(CC)CC)cc3)c(=O)c2cc1OCC
  OX1R antag-1: -10; OX1R antag-2: 4
59	Cc1cc(C)cc(C(=O)N2CC(=O)Nc3ccccc32)c1
  OX1R antag-1: -19; OX1R antag-2: 3
60	Cc1ccc(NS(=O)(=O)c2ccc(OCC(=O)NCc3cccnc3)cc2)cc1
  OX1R antag-1: -17; OX1R antag-2: 21
61	O=C(Nc1ccccc1C(=O)Nc1ccc(Br)cn1)c1ccccc1Cl
  OX1R antag-1: -29; OX1R antag-2: 14
62	COCC(=O)NC(c1ccccc1)c1ccccc1
  OX1R antag-1: -24; OX1R antag-2: 12
63	CCSc1nc(N)c(C#N)c(-c2ccccc2Cl)c1C#N
  OX1R antag-1: -18; OX1R antag-2: 1
64	Brc1ccc(-c2noc(CCc3ccccc3)n2)cc1
  OX1R antag-1: -18; OX1R antag-2: 16
65	O=C(O)CC/C(=N/NC(=O)CNC(=O)Cc1ccccc1)c1ccccc1
  OX1R antag-1: -7; OX1R antag-2: 9
66	CC(=O)Nc1ccc(S(=O)(=O)c2ccc(N)cc2)cc1
  OX1R antag-1: -5; OX1R antag-2: 17
67	O=C(O)CCCCCCC1C(=O)NC(=O)N1CCC(O)C1CCCCC1 (stereo not drawn)
  OX1R antag-1: -9; OX1R antag-2: 6
68	Cc1occc1-c1nnc(SCC(=O)NC(C)(C)C)n1C(C)c1ccccc1 (stereo not drawn)
  OX1R antag-1: -33; OX1R antag-2: 47
